Compound activity from PubChem.
Calb biofilm kill: mixtures killing C. albicans biofilm; hit rate 0.02% among 120,000; C. albicans biofilm persisters + clotrimazole, fluorescence viability; primary screen in compound mixtures of four per well; inhibition, % at 7.6 µM; AID 1242;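 active = inhibition above 30.3% in the primary screen of four-compound pools, then above 30% when the compound was retested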;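 also: compounds exposed to preformed 24 h biofilms for 48 h; the number belongs to the whole pool; some results filed as inactive read as strong as hits; inactives centre near 12; 0% = biofilm with clotrimazole alone and 100% = kill control; retested singly at about 60 µM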
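Test system: C. albicans CAF4-2 wild-type biofilms; buffer or medium: RPMI/MOPS medium, pH 7.0; schedule: 24 h biofilm formation, then 48 h compound exposure, 37 °C; detection: Alamar Blue fluorescence; measure: percent inhibition of biofilm viability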
* marks the source's active call; other numbers are inactive results.

SMILES | Calb biofilm kill
O=c1c2ccccc2nnn1COc1ccc(Cl)cc1Br | 7
CC(C)=CCN1CCN(Cc2ccoc2)CC1CCO (centres undefined) | 9
COc1ccc(C(=O)NC2=NCCS2)cc1S(=O)(=O)N1CCCCC1C (centres undefined) | -8
COC(=O)c1ccc(-n2c(C)cc(C(=O)CCl)c2C)cc1 | 8
CC(C(=O)N1CCCC1)N1CCN(c2ccccc2O)CC1 (centres undefined) | 21
CCOc1ccc(NC(=O)CN(C)CC(=O)Nc2ccc(F)c(F)c2F)cc1OCC | -1
COc1ccc(CN(CCC(c2ccccc2)c2ccco2)C(=O)c2ccco2)cc1 (centres undefined) | 7
Cc1ccnn1CCC(=O)N1CCCC(CCC(=O)N2CCN(c3ccccn3)CC2)C1 (centres undefined) | 8
Cc1ccc(C)c(OCc2ccc(C(=O)N3N=C(C(F)F)CC3(O)C(F)F)o2)c1 (centres undefined) | 13
CCOC(=O)N1CCN(C(=O)CCn2c(=S)[nH]c3ccsc3c2=O)CC1 | 13
COc1cccc(CSc2nc3cc4c(cc3cc2C)OCCO4)c1 | 17
CCOC(=O)c1cc(NC(=O)CSc2nnc(CN3CCOCC3)n2C)ccc1Cl | 11
CCC(=O)c1c(NC(CC)CO)cc(C)oc1=O (centres undefined) | 12
Cn1c2c(c(=O)n(C)c1=O)C(C(F)(F)F)(C(F)(F)F)N=C(C1CCCCC1)N2 | 16
COc1ccccc1NC(=S)NCCSc1ccc(C)cc1 | 18
CCN(CCNC(=O)C1CCC(=O)N1Cc1ccc(C)cc1)c1ccccc1 (centres undefined) | 12
O=C(NCc1c(F)cccc1F)c1cc(COc2c(F)cccc2F)on1 | 9
Cc1ccc(OC(=O)c2cc(=O)c3ccccc3o2)cc1 | 25
CCS(=O)(=O)N1CCN(c2ccc(Cl)cc2[N+](=O)[O-])CC1 | 21
COc1ccc(CCNC(=O)/C=C/C(=O)O)cc1 | 14
CCCCCn1c(SCc2cccc(C)c2)nc2c1c(=O)[nH]c(=O)n2C | 7
CCOc1ccc(CN2CCN(C(=O)c3cccc(F)c3)CC2)cc1 | -14
Fc1ccc(NC(=S)Nc2cc(Cl)ccc2Cl)cc1 | 13
COC(=O)c1ccccc1S(=O)(=O)C(C)(C)C | 13
COc1ccc(NC(=O)c2cccnc2NCCc2ccccc2)cc1 | 9
CCNC(=S)NNC(=O)c1ccccc1Cl | 13
C=CCNC(=O)/C(=C\c1ccc(Br)cc1)NC(=O)c1ccccc1OC | 14
CC1(C)CC(=O)C2=C(C1)Nc1ccccc1S2 | 1
CCOc1ccccc1C(=O)NC(C(=O)NCc1ccc(F)cc1)C(C)C (centres undefined) | 14
Cc1ccc(C(=O)NCC(=O)Nc2ccc(C)c(S(=O)(=O)Nc3ccc(Cl)cc3)c2)s1 | -2
O=C(Cc1cccc2ccccc12)NN1C(=O)/C(=C\c2cccnc2)SC1=S | 23
CCOc1ccccc1OC(=O)c1cc2ccccc2oc1=O | 8
CC(Oc1ccc(Cl)cc1Cl)/C(N)=N/O (centres undefined) | 11
CCCCCC[N+](C)(C)CC/C=C1/c2ccccc2Sc2ccc(Cl)cc21 | 22
COC(=O)N1[C@H](C)C=C[C@]1(Cc1ccccc1)C(=O)O | 12
CC(=O)Nc1ccccc1NC(=O)c1ccccc1 | 16
CCC(COC)NCc1cn(-c2ccc(OC)cc2)nc1-c1cccc(F)c1 (centres undefined) | 18
COC(=O)CSc1nc(NC#N)nc(NC(C)(C)C)n1 | 33
COCCCN(CC(=O)Nc1ccc(N2CCOCC2)cc1)S(=O)(=O)c1ccc(Cl)cc1 | 11
COc1cc(OC)cc(C(=O)N2CCC(N3CCCCCC3)CC2)c1 | 8
COc1ccc(N2C(=O)CCC2=O)c(OC)c1 | 14
Cn1nnc(NC(=O)c2ccccc2)n1 | 16
COCCn1c(SCc2ccccc2F)nc2ccccc2c1=O | 7
COc1ccc(C2c3[nH]c4ccccc4c3CCN2CCCn2cccn2)c(C)c1C (centres undefined) | -2
C=CC[n+]1ccc2ccccc2c1C | 6
CCCC1CCC(c2ccc(C(=O)NN)cc2)CC1 (centres undefined) | 20
Cc1cc(/C=N/NC(N)=S)c(O)c(/C=N/NC(N)=S)c1 | 13
CCc1cccc(N(C(=O)c2csnn2)C(C(=O)NC(C)(C)CC)c2ccccn2)c1 (centres undefined) | 9
CCN(CC)C(=O)C(=O)N/N=C/c1ccc(C(=O)O)cc1 | 8
Cc1ccc2nc(Cl)c3cc(C(=O)NCCCN4CCCC4)sc3c2c1 | 16
O=C(Nc1ccc(Cl)cc1)Nc1ccccc1C(=O)O | 0
CCCNC(=O)Nc1ccccc1SC | 16
O=C1c2ccccc2-c2cccc(C(=O)N3CCCCC3)c21 | 11
CC(C)(C)c1ccc(/C=C/C(=O)N2CCCCC2)cc1 | -8
Cc1ccc(S(=O)(=O)N(CC(=O)Nc2ccccc2C(=O)O)c2ccccc2)cc1 | 16
CCOC(=O)C1=C(C)NC2=C(C(=O)OC2)C1c1ccccc1 (centres undefined) | 2
CCOC(=O)c1nc(-c2ccccc2)sc1C(C)=O | 18
O=C1C(CCCNC(=S)NCc2ccccc2)NC(=S)N1Cc1ccccc1 (centres undefined) | -15
C=CCNC(=S)NNc1nc2c(c(=O)[nH]1)C1(CCCCC1)Cc1ccccc1-2 | -2
O=C(CNc1ccc(F)cc1)N/N=C1\CCCc2ccccc21 | 9

Shown with each value named: 3 of the compounds above.
CCNC(=S)NNC(=O)c1ccccc1Cl
  Calb biofilm kill: 13
CC(C)=CCN1CCN(Cc2ccoc2)CC1CCO (centres undefined)
  Calb biofilm kill: 9
CCOC(=O)c1nc(-c2ccccc2)sc1C(C)=O
  Calb biofilm kill: 18

New compounds follow
SMILES | Calb biofilm kill
CCOC(=O)C(NC(=O)c1ccccc1)(OCC1(CC)COC1)C(F)(F)F (centres undefined) | 14
O=C(CN1C(=O)NC2(CCc3ccccc3C2)C1=O)Nc1ccc(F)cc1 (centres undefined) | 16
C#CCOCCOCCOCCNc1nc(N2CCN(C(=O)[C@H](CCCCN)n3cc(C(N)CO)nn3)CC2)nc(N2CCN(C(=O)[C@H](CCC(=O)O)n3cc(C(N)[C@H](C)CC)nn3)CC2)n1 (some centres undefined) | 14
CCc1cccc2[nH]c3cc([N+](=O)[O-])ccc3c12 | 0
CC(=O)NC(Cc1cccc(F)c1)C(=O)NC1CCN(C(=O)c2cccc(C)c2)CC1 (centres undefined) | 12
CCCCC(=O)NC(Nc1sc2c(c1C(N)=O)CCCC2)(C(=O)OCC)C(F)(F)F (centres undefined) | 13
O=C(COC(=O)C1(c2ccc(F)cc2)CCCC1)Nc1ncc(C(F)(F)F)cc1Cl | 10
COc1ccc(/C=C/C(=O)Nc2cccc(S(=O)(=O)N3CCCC3)c2)cc1OC | 17
CC1=NNC(=O)C1CCC(=O)N/N=C/C(Br)=C/c1ccccc1 (centres undefined) | 11
CCc1cc(C(=O)OC)c(NC(=O)CC2SC(=NC)N(C)C2=O)s1 (centres undefined) | 10
COc1cccc(S(=O)(=O)Nc2cccc(C(=O)N3CCCCCC3)c2)c1 | 11
O=C(CSc1nnc(Cc2ccc3c(c2)OCO3)n1C1CCCCC1)NC1CCCC1 | 10
Cc1cc(Nc2cccc(Cl)c2)n2ncnc2n1 | 14
CC1CCCN(C(c2ccccc2)c2sc3ncnn3c2O)C1 (centres undefined) | 12
Clc1ccc(CO/N=C2\CCCc3nonc32)cc1 | 25
O=C(Nc1nc(=O)[nH]s1)c1ccccc1 | 10
O=C(Nc1nc(-c2ccncc2)cs1)C1c2ccccc2Oc2ccccc21 | 10
COc1cc(-c2nc3n(n2)C(c2ccncc2)C2=C(CCCC2=O)N3)cc(OC)c1OC (centres undefined) | 0
O=C(c1ccc(-c2ccccc2)c(F)c1)C1CCCN(C(=O)c2cncs2)C1 (centres undefined) | 5
O=C(CN1C(=O)CCC1=O)Nc1nc(-c2ccc3ccccc3c2)cs1 | 7
CC(=O)Nc1ccc(OCc2cnc(Cl)s2)cc1 | 15
C/C(=N/NC(=O)c1cc(-c2cccc([N+](=O)[O-])c2)n[nH]1)c1cccc(O)c1 | 13
NC(=O)NC(CC(=O)NCCCc1ccccc1)c1ccccc1Cl (centres undefined) | -6
NC(=NC(=O)c1ccc(OC(F)(F)F)cc1)c1ccc(C(F)(F)F)cn1 | 16

Compounds shown so far that have two or more sulfur atoms:
SMILES | Calb biofilm kill
COc1ccc(C(=O)NC2=NCCS2)cc1S(=O)(=O)N1CCCCC1C (centres undefined) | -8
CCOC(=O)N1CCN(C(=O)CCn2c(=S)[nH]c3ccsc3c2=O)CC1 | 13
COc1ccccc1NC(=S)NCCSc1ccc(C)cc1 | 18
Cc1ccc(C(=O)NCC(=O)Nc2ccc(C)c(S(=O)(=O)Nc3ccc(Cl)cc3)c2)s1 | -2
O=C(Cc1cccc2ccccc12)NN1C(=O)/C(=C\c2cccnc2)SC1=S | 23
Cc1cc(/C=N/NC(N)=S)c(O)c(/C=N/NC(N)=S)c1 | 13
O=C1C(CCCNC(=S)NCc2ccccc2)NC(=S)N1Cc1ccccc1 (centres undefined) | -15
CCc1cc(C(=O)OC)c(NC(=O)CC2SC(=NC)N(C)C2=O)s1 (centres undefined) | 10

(further entries)
SMILES | Calb biofilm kill
c1ccc(Cn2cc(CNc3ccccc3)nn2)cc1 | 17
Cc1ccc(S(=O)(=O)NNC2CC(=O)N(c3ccc(Br)cc3)C2=O)cc1 (centres undefined) | 10
CC(NC(=O)Nc1cccc(Cl)c1)C(c1cccs1)N1CCCC1 (centres undefined) | 8
O=C(COC(=O)Cn1cnc2ccccc21)Nc1cc(S(=O)(=O)N2CCOCC2)ccc1Cl | 11
CCCSc1nc2ccsc2c(=O)n1CC | 10
CCC1=C(OC(=O)N(CC)CC)N2C(=O)OC(=NCC(=O)OC)[C@]2(Cc2ccccc2)[C@H]2C1=CC[C@H]1C(=O)N(C)C(=O)[C@H]12 | 0
C=CCOc1c(Br)cc(/C=C2/NC(=S)N(C(C)=O)C2=O)cc1OC | 14
COc1ccc(-c2nc(NC(=O)CSCCO)sc2C)cc1 | 9
COc1ccc(-c2csc(NC(=O)CSc3nc(SC)ns3)n2)cc1 | 14
Cc1cccc(-n2cc(CN3CCN(Cc4nccn4C)CC3)c(-c3cccc(F)c3)n2)c1 | 0
CCCOc1ccc(N2C(=O)CC(SC(=N)N3N=C(c4ccccc4)CC3c3ccccc3)C2=O)cc1 (centres undefined) | 15
CN(C(=O)c1ccco1)c1nc(CC(=O)Nc2ccccc2)cs1 | 7
COc1cc(C)nc(N2CCCC(C(=O)NCC(C)C)C2)n1 (centres undefined) | 10
Cc1ccsc1C(=O)C1CCCN(Cc2cccn2-c2ccc(Cl)cn2)C1 (centres undefined) | 4
Cc1ccc2[nH]c(=O)c(C(c3nnnn3C3CCCC3)N3CCCc4ccccc43)cc2c1 (centres undefined) | 12
O=C(/C=C/c1ccco1)NCC1(c2ccccc2)CCCC1 | -12
COc1ccc(S(=O)(=O)n2nc(-c3ccc(Cl)cc3)cc2N)cc1 | 20
O=C(Cn1c(-c2ccccc2)c[n+]2ccsc12)c1ccc([N+](=O)[O-])cc1 | 12
CCOc1ccc(NC(=O)c2ccc3snnc3c2)cc1 | 12
CCOC(=O)c1[nH]c2ccc(OC)cc2c1NC(=O)/C=C/c1ccc2c(c1)OCO2 | 17
CCOC(=O)Cc1csc(NC(=O)/C=C\c2ccccc2)n1 | 10
CSCC[C@H](NC(=O)NC1CCCC1)C(=O)O | 5
COc1cccc(C(=O)N2CCN(Cc3cn[nH]c3-c3ccc(F)cc3F)CC2)c1 | 12
CC1(C)CC2(CCO1)OC(=O)CC2C(=O)Nc1ccccc1Cl (centres undefined) | 8
CCC(C)(C)NC(=O)CCCSc1nc2ccccc2s1 | 11
O=C1CCC(C(=O)Nc2nnc(C3CC3)s2)=NN1 | 6
O=C(COc1c(Br)cc(Br)c2cccnc12)Nc1ccccc1F | 17
O=S(=O)(/N=C(/Nc1ccc(F)cc1F)c1ccccc1)c1ccc(Br)cc1 | 11
COc1cc(C(=O)OCC(=O)NCCN2C(=O)CSC2=O)ccc1OCc1c(C)noc1C | 12
CCCn1cc2c(c1-c1ccc(C)cc1)c(=O)n(C)c(=O)n2C | -3
CCCNC(=O)Nc1ccc(C)cc1C | 18
COc1ccc(C(=O)COc2ccc(C)cc2NC(C)=O)cc1 | 10
O=S(=O)(NCCc1ccccc1)c1cccc2cccnc12 | 7
CN(c1ccc(C(=O)Nc2cccc([N+](=O)[O-])c2)cc1)S(C)(=O)=O | 25
O=[N+]([O-])c1cccc(CNCc2ccccc2)c1 | 19
Nc1ccccc1C(=O)/C=C/c1ccc2c(c1)OCO2 | 15
Nc1nc2c(Cl)ccc(Cl)c2s1 | 8
Cc1cc(C(F)(F)F)nn1CC(=O)NCc1cccs1 | 7
CCc1ccc(NC(=S)NC2CCN(Cc3ccccc3)CC2)cc1 | 1
CN(C)CCN(C(=O)c1ccc(N2C(=O)CCC2=O)cc1)c1nc2cc3c(cc2s1)OCO3 | 20

Copied from the list.
For Calb biofilm kill, Cc1ccsc1C(=O)C1CCCN(Cc2cccn2-c2ccc(Cl)cn2)C1 (centres undefined) is listed with 4
For Calb biofilm kill, O=C(NCc1c(F)cccc1F)c1cc(COc2c(F)cccc2F)on1 is listed with 9
For Calb biofilm kill, CCOC(=O)C1=C(C)NC2=C(C(=O)OC2)C1c1ccccc1 (centres undefined) is listed with 2
For Calb biofilm kill, CC(C)=CCN1CCN(Cc2ccoc2)CC1CCO (centres undefined) is listed with 9
For Calb biofilm kill, O=C(Nc1nc(-c2ccncc2)cs1)C1c2ccccc2Oc2ccccc21 is listed with 10
For Calb biofilm kill, Cc1ccc2nc(Cl)c3cc(C(=O)NCCCN4CCCC4)sc3c2c1 is listed with 16

This is a subset, so the mix of outcomes need not match the whole.
